High-throughput results as filed in PubChem BioAssay.
MbtI inh: inhibitors of Mycobacterium tuberculosis siderophore enzyme MbtI; AID 493033; inhibition, %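 (about 17 µg/mL by stock and volumes)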; P9WFX0; purified MbtI enzyme, fluorescence intensity read-out; hit rate 0.89% among 100,000;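 active = above 50% in both replicates, above 80% if mildly self-fluorescent; inactive = the rest, strongly fluorescent compounds included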;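 note: 0% = mean of negative and 100% = mean of positive controls; one replicate is shown; some compounds called inactive have numbers as strong as hits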
Mtb MenB inh: blocks the Mycobacterium tuberculosis MenB enzyme; P9WNP5; MenB enzyme assay, absorbance read-out; some hits fall short of the stated cut; inhibition, %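 (about 12 µg/mL by stock and volumes)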; hit rate 0.43% among 100,000; AID 540299;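 active = mean of two replicates above 30%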;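 note: 0% = no compound and 100% = wells with inactive enzyme; the first replicate is given; strong numbers were not always called active; inactives centre near -10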
Target sequence (P9WNP5 whole entry, looked up): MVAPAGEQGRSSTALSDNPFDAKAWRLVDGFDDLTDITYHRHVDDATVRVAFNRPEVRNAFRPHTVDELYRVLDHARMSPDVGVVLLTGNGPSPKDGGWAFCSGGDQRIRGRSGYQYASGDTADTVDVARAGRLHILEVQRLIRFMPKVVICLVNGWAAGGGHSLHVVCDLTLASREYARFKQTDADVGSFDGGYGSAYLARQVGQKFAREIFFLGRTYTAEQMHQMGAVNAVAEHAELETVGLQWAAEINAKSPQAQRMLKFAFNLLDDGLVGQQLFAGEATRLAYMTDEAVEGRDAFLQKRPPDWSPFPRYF
Polio RdRp inh: inhibitors of poliovirus RNA polymerase binding and polymerization; P03300; poliovirus polymerase elongation, fluorescence polarization; stronger effect = lower value; % elongation, % (compound at 16.7 µg/mL); hit rate 0.66% among 150,000; AID 588519; in the data active = % elongation below about 90%; note: some results filed as inactive read as strong as hits
Target sequence (P03300 1749-2209 limits assumed): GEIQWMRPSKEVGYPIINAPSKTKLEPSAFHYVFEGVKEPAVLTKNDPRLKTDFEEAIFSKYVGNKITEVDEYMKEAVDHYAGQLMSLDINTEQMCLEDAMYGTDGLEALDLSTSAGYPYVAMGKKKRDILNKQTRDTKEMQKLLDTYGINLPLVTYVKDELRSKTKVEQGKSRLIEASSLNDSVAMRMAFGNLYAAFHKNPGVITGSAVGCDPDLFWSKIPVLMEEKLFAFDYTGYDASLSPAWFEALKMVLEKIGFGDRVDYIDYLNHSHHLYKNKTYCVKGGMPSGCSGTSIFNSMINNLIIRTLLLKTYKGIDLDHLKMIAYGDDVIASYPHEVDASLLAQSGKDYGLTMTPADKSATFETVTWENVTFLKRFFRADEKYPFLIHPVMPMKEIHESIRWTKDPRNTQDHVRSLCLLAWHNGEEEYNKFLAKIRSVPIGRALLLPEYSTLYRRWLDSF
Polio RdRp inh intensity: second read-out of Polio RdRp inh, no call of its own (marks repeat the call); % elongation; measured here: total intensity read-out; formula for this scale not given here;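 total fluorescence in place of polarization; lower means less elongation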
* marks the source's active call; other numbers are inactive results; i = inactive; / = not tested or not shown; & = joins results of further samples.

SMILES	MbtI inh	Mtb MenB inh	Polio RdRp inh	Polio RdRp inh intensity
N#Cc1c(N)ccn(Cc2ccccc2)c1=O	-1	-25	98	102
COc1nc(NC(C)(C)C)nc(Oc2ccc(=O)n(C)n2)n1	1	1	102	105
CCOC(=O)/C(C#N)=C\c1ccc(N2CCOCC2)cc1	9	-72	78	202
CC1=Nc2nc(N3CC(C)OC(C)C3)c(C#N)c3c4c(nc(c23)N1)N(c1ccccc1)C(=O)C4 (configuration not stated)	105	-9	87	101
Cc1ccsc1C(=O)OCC(=O)Nc1sccc1C#N	6	9	/	/
C=CCn1c(-c2cccc(C)c2)nc2ccccc21	101	0	101	103
COc1cc(/C=N/NC(=S)NCC2CCCO2)ccc1OC(=O)c1ccco1 (configuration not stated)	-1	-48	101	98
C[C@@H]1CCC[C@H](C)N1	-14	-1	99	103
CCOC(=O)c1ccc(NC(=O)c2cccc3c2C(=O)N(Cc2cccnc2)C3)cc1	-3	-7	101	103
Ic1ccc(Nc2nc(Nc3ccccc3)nc(N3CCOCC3)n2)cc1	-2	2	100	107
c1ccc2cc(Cn3ccnc3)ccc2c1	-2	-21	101	101
O=C(NCCc1ccccc1)c1nnc(-c2ccc3c(c2)OCO3)o1	-77	-9	100	102
NC(=O)N/N=C/c1ccc(OC(=O)c2ccco2)cc1	-17	-2	100	103
O=C(Nc1nc2ccccc2[nH]1)C1CC(=O)N(Cc2ccccc2)C1 (configuration not stated)	8	12	103	100
CCS(=O)(=O)Nc1cccc(C(=O)CC2(O)C(=O)Nc3ccccc32)c1 (configuration not stated)	-3	-2	102	107
O=c1[nH]c(Nc2nc3ccccc3o2)nc2c1CCCC2	-6	-24	97	98
c1ccc(CC2=NNC(Cc3ccccc3)=NN2)cc1	10	12	100	101
CC(C)Nc1nc(Cl)nc(NCCO)n1	-5	30	104	102
CCN(Cc1ccc2c(c1)OCCO2)C(=O)c1ccc(=O)n(Cc2ccccc2)n1	-3	-8	95	103
O=C1N/C(=C/c2ccsc2)C(=O)N1c1ccccc1	-7	-18	101	107
CNCC(O)Cn1c2c(c3ccccc31)CCCC2 (configuration not stated)	/	1	106	111
CC1(C)CO/C(=C/C(=O)c2ccncc2)N1	/	1	104	111
Cc1cc(/C=C2/C(=O)NC(=S)N(Cc3ccco3)C2=O)c(C)n1C1CCCCC1	15	-39	100	102
Cc1ccc(NC(=O)C2CCCN(S(=O)(=O)c3c(C)n[nH]c3C)C2)cc1 (configuration not stated)	-3	-2	99	103
O=C(c1cccc(Cl)c1)N(Cc1cc2ccccc2[nH]c1=O)C1CCCCC1	-3	3	102	103
CN(C(=O)CSc1nnnn1C)c1ccccc1	-4	1	104	108
CC(=O)Nc1c(C(=O)O)[nH]c2ccccc12	/	-3	100	107
COc1ccc(CNC(=O)c2cnn3cc(Br)cnc23)cc1	-17	-1	101	100
COc1ccc(S(=O)(=O)N(CC#N)Cc2ccco2)cc1OC	13	-3	99	96
COC(=O)c1cc2c(ccn2-c2ccc(F)cc2)n1CC(=O)N1CC(C)CC(C)C1 (configuration not stated)	84	-13	102	100
Cc1cccc(Nc2ncc3ncn(-c4cccc(C)c4)c3n2)c1	1	-23	100	103
COc1ccc(C(=S)N2CCC(C)CC2)cc1	72*	-53	98	94
Brc1ccccc1C1OCC2(CO1)COC(c1ccccc1Br)OC2 (configuration not stated)	/	-34	106	101
Cn1cc(C(=O)NCC2COc3ccccc3O2)c(=O)c2cc(S(=O)(=O)N3CCCCC3)ccc21 (configuration not stated)	-3	5	100	105
Cc1ccsc1CCNC(=O)c1cc(-c2ccc(Cl)cc2)n[nH]1	-11	-34	102	95
Cc1ccccc1NC(=O)c1c(NC(=O)c2ccco2)sc2c1CCC2	-57	-32	98	105
Cc1ccc2cc(C#N)c(NCc3ccccc3)nc2c1	-104	-15	100	106
O=C(NCC1c2ccccc2CCN1C(=O)CN1CCOCC1)C1CCCCC1 (configuration not stated)	-4	10	100	104
O=C(O)C1CCN(c2cnccn2)CC1	-10	-4	105	100
Cc1ccc(-c2c(O)c3cc(C)c(C)cc3c3oc(=O)sc23)cc1	12	-3	103	105
Cc1ccoc1C(=O)Nc1ccccc1C(=O)O	49	-124	101	102
CS(=O)(=O)Nc1ccc(/C(N)=N/OC(=O)Nc2ccccc2)cc1	2	23	101	101
O=C1C(C=NCc2ccco2)=C(O)c2ccccc21	20	-47	100	104
COc1ccc(Cn2ccc3nc(C)c(C(=O)Nc4ccccc4)cc3c2=O)cc1	165	-17	100	105
CCOC(=O)CSc1nnc(CNC(=O)Cc2ccccc2)n1-c1ccc(OC)cc1	12	0	101	101
C=CCOc1ccc(CNc2ccc3[nH]c(=O)[nH]c3c2)cc1	-157	6	100	102
Cc1ccccc1NC(=O)NC1CCN(C(C)C)CC1	-18	-17	107	102
Cn1c(SCC(=O)N2c3ccccc3CCc3ccccc32)nnc1C1CC1	1	-20	101	99
Cc1ccc(NC(=O)C(OC(=O)c2c(C)noc2C)c2ccccc2)cc1Cl (configuration not stated)	-16	-14	104	108
O=C(Nc1cc2ccccc2oc1=O)c1ccc(Cl)cc1	18	7	103	96

The last five compounds of the section above come first, to join the parts.
SMILES	MbtI inh	Mtb MenB inh	Polio RdRp inh	Polio RdRp inh intensity
C=CCOc1ccc(CNc2ccc3[nH]c(=O)[nH]c3c2)cc1	-157	6	100	102
Cc1ccccc1NC(=O)NC1CCN(C(C)C)CC1	-18	-17	107	102
Cn1c(SCC(=O)N2c3ccccc3CCc3ccccc32)nnc1C1CC1	1	-20	101	99
Cc1ccc(NC(=O)C(OC(=O)c2c(C)noc2C)c2ccccc2)cc1Cl (configuration not stated)	-16	-14	104	108
O=C(Nc1cc2ccccc2oc1=O)c1ccc(Cl)cc1	18	7	103	96
CCOC(=O)CCc1ccc(C(=O)C(F)(F)F)o1	1	-33	99	103
CC1CCN(Cn2c(=S)oc3ccccc32)CC1	41	-44	101	96
CC1=C(C)C(=O)C(N2CCN(Cc3ccccc3)CC2)=CC1=O	14	-9	104	102
Cc1cc(C(=O)NCc2ccc3c(c2)OCO3)nc2c1c(C)nn2-c1ccccc1Cl	1	-8	103	108
Cc1c(C(=O)NCCCN2CCCCC2)oc2ccc3c(c12)C(O)CC(C)(C)O3 (configuration not stated)	119	-9	108	103
C=Cn1cccc1-c1ccc(OC)cc1	21	-12	116	149
Cc1ccc(OCCN2CCN(c3ncnc4scc(-c5ccccc5)c34)CC2)cc1	-7	-18	102	96
O=C(CSC1=NNC(=O)C1C1CC1)Nc1cccc(Br)c1 (configuration not stated)	-1	2	98	104
Cc1cccc(Oc2coc3cc(OC(=O)c4cccnc4)ccc3c2=O)c1	-3	-3	104	108
O=C1NC(=S)S/C1=C/c1cccnc1	/	-5	103	98
C[n+]1ccc(-c2cc[n+](C)cc2)cc1	3	-4	102	106
CC(=O)Oc1ccc(C(=O)COc2ccc(F)cc2)c(O)c1C	5	-27	106	96
C=CCN1C(=O)/C(=C/c2cn(C(C)CC)c3ccccc23)C(=O)NC1=S (configuration not stated)	41	-7	60	186
CN1C(=O)CCN(C=O)c2ccccc21	/	3	103	96
CC(Sc1ccc(Cl)cc1)C(=O)NCc1ccc2c(c1)OCO2 (configuration not stated)	/	-7	100	111
COc1cccc(CN2NS(=O)(=O)c3ccccc3C2=O)c1	6	3	101	97
CC1CC(C)CN(S(=O)(=O)N2CCCC(C(=O)NC3CCCC(C)C3C)C2)C1 (configuration not stated)	-7	-1	100	104
Cc1cc(C(=O)NC2CCCC2)c2ccccc2n1	11	-10	102	106
COc1cccc(-n2cc(C(=O)NCCC(C)C)c3ccccc3c2=O)c1	-14	-13	106	99
Cc1ccccc1OCC(O)CN1C(=O)N(CN2C(=O)N(CC(O)COc3ccccc3C)C(=O)C2(C)C)C(C)(C)C1=O (configuration not stated)	-2	-24	102	101

Compound profiles, from the list above. Values in the order: MbtI inh	Mtb MenB inh	Polio RdRp inh	Polio RdRp inh intensity
COc1cccc(CN2NS(=O)(=O)c3ccccc3C2=O)c1 is listed as 6	3	101	97
Cc1cc(C(=O)NC2CCCC2)c2ccccc2n1 is listed as 11	-10	102	106
CN1C(=O)CCN(C=O)c2ccccc21 is listed as /	3	103	96
CC(=O)Oc1ccc(C(=O)COc2ccc(F)cc2)c(O)c1C is listed as 5	-27	106	96
C[n+]1ccc(-c2cc[n+](C)cc2)cc1 is listed as 3	-4	102	106

Going on with the list.
SMILES	MbtI inh	Mtb MenB inh	Polio RdRp inh	Polio RdRp inh intensity
O=C(O)CCC(=O)Nc1ccc(S(=O)(=O)N2CCCC2)cc1	-12	-26	99	98
Oc1c(CN2CCN(c3ccccc3)CC2)cc(Cl)c2cccnc12	-4	/	100	109
CCC1NC(=O)c2cc(S(N)(=O)=O)c(Cl)cc2N1 (configuration not stated)	8	11	100	98
CC(Sc1nc(N)cc(=O)[nH]1)C(=O)Nc1cccc(Cl)c1 (configuration not stated)	2	-25	98	102
O=C(NCCc1ccc(S(=O)(=O)N2CCCC2)cc1)c1cccs1	/	8	102	97
O=C1CSC(c2ccccc2)N1Cc1ccccc1 (configuration not stated)	0	-6	105	107
O=C(NC1CCN(CC(=O)N2CCOCC2)CC1)C1CCCCC1	-1	-14	104	103
CCOC(=O)Cn1nc2sc3ccccc3n2c(=O)c1=O	68	-38	101	103
CCOc1ccc(Nc2oc(Cc3ccccc3)nc2C#N)cc1	2	-17	100	102
CCCNC(=O)c1ccc(COc2ccc(C)cc2)o1	10	-30	99	102

The last two entries of the section before are carried over, then new ones follow.
SMILES	MbtI inh	Mtb MenB inh	Polio RdRp inh	Polio RdRp inh intensity
CCOc1ccc(Nc2oc(Cc3ccccc3)nc2C#N)cc1	2	-17	100	102
CCCNC(=O)c1ccc(COc2ccc(C)cc2)o1	10	-30	99	102
CC(CN1CCCCC1)OC(=O)c1ccco1 (configuration not stated)	/	-4	103	102
CCOC(=O)NN1C(=O)c2ccccc2NC1c1ccc(OC)cc1 (configuration not stated)	i	-11	101	98
Nc1ccc(Cc2ccncc2)cc1	-4	/	102	102
O=C(NC(Cc1ccccc1)C(=O)NCc1ccco1)c1ccccc1 (configuration not stated)	-5	10	106	109
Cc1ccccc1-c1nnc(CN2CCc3ccccc32)o1	-17	-11	103	104
C=CCN(CC=C)C(=O)C[n+]1ccc(/C=N/O)cc1	11	15	100	103
N#CC(C#N)C(c1ccccc1)c1c(O)[nH]c(=S)[nH]c1=O (configuration not stated)	-2	-6	98	105
COC(=O)c1sc(SC)c(-c2ccon2)c1C	2	2	105	110
CC(=O)Nc1c(O)c2ccccc2[nH]c1=O	-118	-3	103	102
Cc1ccc(N2C(=O)/C(=C/c3cc(Br)c(N4CCOCC4)o3)C(=O)NC2=S)c(C)c1	20	-27	113	120
O=C1CCc2cc(S(=O)(=O)N3CCN(c4cccc(Cl)c4)CC3)cc3c2N1CCC3	10	-26	106	96
Fc1ccccc1Cn1c(C2CC2)nc2ccccc21	3	-35	103	103
COc1ccc(C2CC(=O)C3=C(C2)NC(=O)CC3c2ccc3c(c2)OCO3)cc1 (configuration not stated)	5	3	101	103
CCOC(=O)c1c(C)oc2c1c(C=NCCO)c(O)c1ccccc12	13	-13	89	104
O=C(O)C12CCC(C(=O)O)(CC1)CC2	-6	/	102	105
O=C(CN1CC(c2ccccc2)CC1=O)Nc1ccccc1 (configuration not stated)	-6	-5	103	105
N#Cc1cnn(C(=O)c2cccc(S(=O)(=O)Nc3ccc(Cl)cc3)c2)c1N	-14	-11	105	111
O=C(C1CCCN1c1nnc(N2CCCC2=O)s1)N1CCN(c2ccccc2)CC1 (configuration not stated)	-1	-9	104	105
Oc1ccc(-c2nc(-c3ccc(F)cc3)c(-c3ccncc3)[nH]2)cc1	i	-4	101&102	106&103
CNC(=O)c1c[nH]c2ccc(S(=O)(=O)Nc3ccccc3F)cc2c1=O	45	4	98	102
CSc1nc(NCCO)c(C#N)c(-c2ccc(C(C)(C)C)cc2)n1	30	-37	102	99
Cc1cc(C(=O)CONC(=O)C23CC4CC(CC(C4)C2)C3)c(C)n1C	15	11	105	97
CC1(C)OC(C)(C)/C(=C/c2ccc3cccnc3c2)C1=O	/	-7	108	112
O=c1c2ccccc2nc(SCc2ccccc2)n1Cc1ccco1	25	-27	103	100
Cc1ccc(NCn2c(=O)sc3ccccc32)cc1	-13	-3	100	101
O=C1CN=C(Nc2ccccc2)N1c1ccccc1	-4	10	99	103
CC1CC(C)CN(C(=O)COC(=O)c2ccc(O)cc2)C1 (configuration not stated)	18	5	103	100
N#CCC(O)(c1nc2ccccc2s1)C(F)(F)F (configuration not stated)	2	0	101	104
Cc1csc(N/N=C\CCc2ccccc2)n1	2	23	101	102
O=C(Nc1cccc(F)c1)NC1(C(=O)NCc2ccco2)CCCCC1	-9	19	100	103
CC(C)(C)c1ccc(Cn2c(=N)n(CC(=O)O)c3ccccc32)cc1	7	-5	100	96
CC(=O)NCc1ccc(C(=O)CSc2nnc(C3CC3)n2C2CC2)cc1	-1	-6	103	99
N=C1c2ccccc2CN1c1ccc(Br)cc1	-4	8	99	99
CCC1C(=O)NCCN1C(=O)c1ccc(-c2ccccc2)cc1 (configuration not stated)	-15	3	99	103
COC(CNC(=O)c1ccc2c(Cl)c3c(nc2c1)CCCC3)OC	0	-6	100	98
COC(=O)CN1C(=O)S/C(=C/c2cc(C)n(C)c2C)C1=O	2	-81	96	106
Cc1ccc(S(=O)(=O)N2CC3C=CC2C3)cc1 (configuration not stated)	5	3	101	102
